Compound activity deposited in PubChem BioAssay by National Center for Advancing Translational Sciences (NCATS).
D2 PAM: Beta-Arrestin HTS for Positive Allosteric Modulators of the Human D2 Dopamine Receptor: Potentiators. D(2) dopamine receptor (Homo sapiens), P14416. AID 624464, 2012. DiscoveRx D2 beta-arrestin cells, luminescence, 90 min; 100% = 57 uM dopamine signal. 0.23% of 360,000 active. potentiation, % (no concentration beside the values); active = potentiation of 50% or more; inconclusive = 30% to 50%; inactive = 30% or less;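 also: compound concentration not given in the record; tested on top of an EC20 dose of dopamine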
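PathHunter beta-arrestin assay in DiscoveRx D2 cells. Compounds were added with an EC20 of dopamine (50 nM final) for 90 min at 37 deg C. Luminescence was read 1 h after detection reagent, with 57 uM dopamine as the EC100 control.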
PINK1 expr mod: A Quantitative High throughput Screen to Identify Chemical Modulators of PINK1 Expression; PINK1 immunofluorescence, high-content cytometry, 24 h; Potency, µM (titrated, usually from 76.6 µM), without a hit: at the top dose activation (PINK1 increase), hits mostly activators; 0.2% of 410,000 active; active = well fitted activation curve with a large enough effect; inconclusive = small, poorly fitted or top-dose-only effect; inactive = flat fitted curve, though single readings scatter; cell line not stated here;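 also: potency is read from the fitted curve at half-maximal effect; % of control where 0% means no effect; nearly all actives have a fitted effect of over 65% in size; a mitochondrial uncoupler was the plate control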
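Readout is PINK1 immunofluorescence, quantified alongside mitochondrial, cell and nuclear markers by laser-scanning microplate cytometry. Cells from a stable line were exposed to compound titrations (5 concentrations) for 24 hours, with CCCP controls.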
TRPML1 ag: qHTS for Agonists of the Human Mucolipin Transient Receptor Potential 1 (TRPML1); TRPML1-expressing cells, Ca2+ dye fluorescence, FDSS; host cell line not named in the record; reference of the full effect not given here; activation, % (test concentration not listed); Mucolipin-1 (Homo sapiens), Q9GZU1; 0.12% of 410,000 active; in the data active = activation above about 50%; inconclusive = about 30% to 50%; inactive = below about 30%; also: 0% is about no effect; the text of the record puts the active cut at 80%
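Kinetic FDSS Ca2+ read in Tet-induced TRPML1-DL cells (ABD Ca8 dye plus quencher, 45-90 min RT loading): baseline, then compound, then 110 s agonist window; EC80 agonist 54-4 at 4uM final added afterwards for a 110 s antagonist window.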
Six1-Eya2 inh: qHTS Assay for Inhibitors of the Six1/Eya2 Interaction; Homeobox protein SIX1 (Homo sapiens) + Protein phosphatase EYA2 (Homo sapiens), …; AlphaScreen GST-Six1/His-Eya2 binding, biochemical; active compounds read low; control for the full effect not named in the record; activity change, % (concentration not given with the values); 0.56% of 360,000 active; AID 651725, 2012; in the data active = activity change below about -65%; inconclusive = about -30% to -65%; inactive = above about -30%; also: % is scaled to controls: 0 for no effect and ±100 for the full control effect
Target sequence (O00167 whole entry, looked up): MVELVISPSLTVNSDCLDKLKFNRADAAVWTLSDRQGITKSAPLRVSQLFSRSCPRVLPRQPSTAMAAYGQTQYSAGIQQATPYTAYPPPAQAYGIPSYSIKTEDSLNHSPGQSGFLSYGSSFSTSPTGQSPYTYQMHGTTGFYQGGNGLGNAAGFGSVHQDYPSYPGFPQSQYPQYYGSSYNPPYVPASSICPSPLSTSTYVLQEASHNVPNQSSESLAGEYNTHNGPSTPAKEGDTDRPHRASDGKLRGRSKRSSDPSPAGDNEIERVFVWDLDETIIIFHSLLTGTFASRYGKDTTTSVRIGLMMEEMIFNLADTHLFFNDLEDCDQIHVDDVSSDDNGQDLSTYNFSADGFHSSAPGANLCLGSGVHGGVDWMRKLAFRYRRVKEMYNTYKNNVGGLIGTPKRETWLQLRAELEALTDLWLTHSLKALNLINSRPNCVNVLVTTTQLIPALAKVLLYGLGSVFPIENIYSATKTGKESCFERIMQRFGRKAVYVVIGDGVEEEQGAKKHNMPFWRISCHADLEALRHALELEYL
Target sequence (Q15475 whole entry, looked up): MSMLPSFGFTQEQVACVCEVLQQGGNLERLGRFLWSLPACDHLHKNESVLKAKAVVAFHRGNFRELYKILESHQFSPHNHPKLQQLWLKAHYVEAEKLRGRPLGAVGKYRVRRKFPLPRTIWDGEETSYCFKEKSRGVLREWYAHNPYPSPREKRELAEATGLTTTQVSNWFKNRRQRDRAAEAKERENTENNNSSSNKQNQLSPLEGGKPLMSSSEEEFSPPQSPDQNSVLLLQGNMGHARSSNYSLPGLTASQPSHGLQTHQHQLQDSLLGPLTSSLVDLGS
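GST-Six1 + His-Eya2 (5X stock: 250/500 nM); Tris pH 8.0, 300 mM NaCl, 0.05% BSA, 0.02% Tween 20; GSH donor/Ni acceptor beads; 1 h 37 °C dark; AlphaScreen readout.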
D2 agonist: Beta-Arrestin HTS for Positive Allosteric Modulators of the Human D2 Dopamine Receptor: Agonists; D(2) dopamine receptor (Homo sapiens), P14416; DiscoveRx PathHunter D2 beta-arrestin, luminescence, 90 min; 100% = 57 uM dopamine signal; activation, % (no concentration beside the values); 0.084% of 360,000 active; AID 624465, 2012; in the data active = activation above about 40%; inconclusive = about 15% to 40%; inactive = below about 15%; also: compound concentration not given in the record; the text of the record calls up to 30% inactive
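DiscoveRx PathHunter D2 beta-arrestin cells (2,100/well) attached overnight, then compound-stimulated 90 min at 37 C in HBSS/10 mM HEPES/0.1% Tween-20 buffer; beta-galactosidase complementation read by luminescence after 1 h at ambient temperature. Dopamine 57 uM final (EC100) as control.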
TRPML1 inh: qHTS for Inhibitors of the Human Mucolipin Transient Receptor Potential 1 (TRPML1) | Mucolipin-1 (Homo sapiens), Q9GZU1 | 0.02% of 390,000 active | TRPML1-inducible cells, Ca2+ dye fluorescence, FDSS; active compounds read low; inhibition of EC80 agonist-evoked calcium signal | activity change, negative = inhibition, % (test concentration not listed) | AID 624415, 2012; in the data active means activity change below about -50%; inconclusive means about -30% to -50%; inactive means above about -30%;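 also: stimulus is agonist 54-4 at its EC80 concentration; % is scaled to controls: 0 for no effect and ±100 for the full control effect; compound concentration not given in the record; the text of the record puts the active cut at -80%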
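Tet-induced TRPML1-DL cells loaded with Ca8 no-wash calcium dye were read kinetically on FDSS. Compound addition was followed by EC80 agonist 54-4 (4 uM final); inhibition was read over 110 s.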
* marks the source's active call; other numbers are inactive results; x = no result given; [ ] = remark or other dose.

| molecule | TRPML1 ag | TRPML1 inh | D2 agonist | PINK1 expr mod | D2 PAM | Six1-Eya2 inh |
| --- | --- | --- | --- | --- | --- | --- |
| COCC1CCN(Cc2cn[nH]c2-c2ccc(OC)cc2F)C1 (stereo not given) | -0.2 | 1 | -3.3 | 1.9% | -11 | 1 |
| COc1ccc(CCn2c3c(c(=O)[nH]c2=O)C(NC(=O)c2cccs2)(C(F)(F)F)C(=O)N3)cc1OC (stereo not given) | -0.2 | -9 | -3.5 | -3.0% | -4 | -2 |
| CCC(=O)N(Cc1cc(=O)[nH]c2ccccc12)c1ccc(C)cc1 | 2.1 | 14 | 1.6 | -3.2% | 3 | 11 |
| CC(=O)N1CCN(C(=O)c2ccc(OC3CCN(CCc4ccccc4)CC3)cc2)CC1 | 0.0 | -12 | -5.3 | 0.4% | -31 | -2 |
| COc1ccccc1CNC(=O)CSc1cc(C)[nH]c(=O)n1 | -0.2 | -11 | x | -0.2% | x | x |
| O=C1CCCC2=C1C(c1ccco1)Nc1ccc(C(=O)c3ccccc3)cc1N2 (stereo not given) | -1.4 | -19 | -2.8 | 6.6% | -13 | -26 |
| COc1ccc(OCCn2cc(/C=N/NC(=O)c3ccncc3)c3ccccc32)cc1 | 0.5 | -13 | -5.0 | -0.1% | -8 | 0 |
| Cc1cc(N2CCC(C(=O)NC3CC3)CC2)nc(-c2ccccc2)n1 | 0.0 | 7 | -4.1 | 1.8% | -12 | -3 |
| Cc1ccc(S(=O)(=O)/N=C2/NC(=O)/C(=C/c3cc([N+](=O)[O-])ccc3O)S2)cc1 | 67* | 1 | -11 | -0.7% | -28 | -10 |
| COc1ccc(CN2CCNC(=O)C2CC(=O)NC2CC(C)(C)CC(C)(C)C2)cc1OC (stereo not given) | -0.6 | 2 | 3.5 | 6.2% | -2 | -4 |
| CCCCn1c(N)c(N(CC(C)C)C(=O)C2CSC3(C)CCC(=O)N23)c(=O)[nH]c1=O (stereo not given) | 0.8 | -5 | -1.9 | -0.2% | -9 | -3 |
| CCCn1nnc(NC(=O)c2cccc(Cl)c2)n1 | 0.3 | -17 | 0.2 | -1.4% | -11 | -1 |
| CCCNC(=O)C(Cc1ccc(F)cc1)NC(=O)c1ccc(C#N)cc1 (stereo not given) | -0.4 | 3 | -7.4 | -0.3% | -5 | 0 |
| COc1cc(C=O)ccc1OCC(=O)N1CCCC1 | 0.4 | -3 | -3.6 | 2.4% | -7 | 9 |
| CCOC(=O)CSC1=C(C#N)C(c2ccccc2OCC)C(C#N)C(=O)N1 (stereo not given) | 0.4 | -1 | -1.4 | x | -25 | -1 |

Structural class: the entries above containing a halogen.
| molecule | TRPML1 ag | TRPML1 inh | D2 agonist | PINK1 expr mod | D2 PAM | Six1-Eya2 inh |
| --- | --- | --- | --- | --- | --- | --- |
| COCC1CCN(Cc2cn[nH]c2-c2ccc(OC)cc2F)C1 (stereo not given) | -0.2 | 1 | -3.3 | 1.9% | -11 | 1 |
| COc1ccc(CCn2c3c(c(=O)[nH]c2=O)C(NC(=O)c2cccs2)(C(F)(F)F)C(=O)N3)cc1OC (stereo not given) | -0.2 | -9 | -3.5 | -3.0% | -4 | -2 |
| CCCn1nnc(NC(=O)c2cccc(Cl)c2)n1 | 0.3 | -17 | 0.2 | -1.4% | -11 | -1 |
| CCCNC(=O)C(Cc1ccc(F)cc1)NC(=O)c1ccc(C#N)cc1 (stereo not given) | -0.4 | 3 | -7.4 | -0.3% | -5 | 0 |

(more compounds)
| molecule | TRPML1 ag | TRPML1 inh | D2 agonist | PINK1 expr mod | D2 PAM | Six1-Eya2 inh |
| --- | --- | --- | --- | --- | --- | --- |
| CN(C)c1ccc(/C=C/C(=O)c2cc(Cl)ccc2O)cc1 | 12 | 30 | -2.8 | 9.2% | -4 | -16 |
| COc1ccc(F)cc1S(=O)(=O)NCC1CCCO1 (stereo not given) | 0.4 | 19 | 0.7 | -0.4% | -14 | -2 |
| COc1ccc(/C=N/NC(=O)c2ccoc2C)cc1COc1c(C)cccc1C | 0.0 | 10 | -0.4 | 15% | -8 | -16 |
| Cc1[nH]c(=O)[nH]c(=O)c1S(=O)(=O)NCCc1ccc(S(N)(=O)=O)cc1 | -0.4 | 2 | -1.2 | -0.5% | 16 | 10 |
| Cc1nn(C)c(C)c1/C=N/NC(=O)CCn1nc(C)c([N+](=O)[O-])c1C | 1.1 | 43 | -5.0 | 0.9% | -3 | 2 |
| O=C(CCN1C(=O)/C(=C\c2cccs2)SC1=S)Nc1ccccn1 | 0.2 | 2 | -2.1 | 9.8% | 7 | -3 |
| COc1cccc(/C=N/NC(=O)c2nnn(-c3nonc3N)c2C(C)C)c1 | 2.2 | 3 | 3.0 | 0.5% | -8 | 5 |
| O=C(Oc1ccccc1)N1CCCCC1 | 0.0 | -1 | -9.3 | 2.9% | -13 | 2 |
| CC(=O)C1(C)C(=O)N(c2ccc(C)cc2)C(=O)N1c1ccc(C)cc1 (stereo not given) | 1.7 | -11 | 1.2 | 0.8% | -9 | 1 |
| CC(CC(=O)Nc1ccc(S(=O)(=O)Nc2ncccn2)cc1)c1ccccc1 (stereo not given) | -0.8 | 15 | -7.5 | 2.1% | -12 | -3 |
| CCn1c(N2CCN(C(=S)NCC(C)C)CC2)nc2ccccc21 | -0.3 | -1 | -3.4 | x | -4 | -1 |
| O=C(Nc1cccc(S(=O)(=O)N2CCOCC2)c1)C1COc2ccccc2O1 (stereo not given) | 2.2 | -7 | 0.9 | 2.0% | 4 | -15 |
| CC(C)c1ccc(OCc2nnc(SCC(=O)N3CCCCC3)o2)cc1 | -0.4 | -9 | 0.4 | 2.9% | -9 | 3 |
| CCOc1cc(S(=O)(=O)Nc2ccccc2CC)ccc1Cl | 0.1 | 5 | -1.2 | 3.9%[38.3 µM] | -5 | 7 |
| Cc1ccc2[nH]c(=O)c(CN(CCCO)S(=O)(=O)c3c(C)ccc4nsnc34)cc2c1 | 0.1 | -7 | -0.6 | -2.4%[38.3 µM] | -8 | -2 |
| O=C(C1CCCN(S(=O)(=O)c2cccs2)C1)N1CCN(c2ccccc2F)CC1 (stereo not given) | -0.2 | 1 | x | 1.7% | x | x |
| Nc1c(NCCC2=CCCCC2)c(=O)[nH]c(=O)n1Cc1ccccc1 | -0.4 | 1 | -4.3 | -0.5% | 8 | -3 |
| Cc1cc(C)c(S(=O)(=O)N2CCN(C(=O)c3cc4ccccc4oc3=O)CC2)c(C)c1 | 0.3 | 7 | -0.8 | -0.3% | 0 | -3 |
| CCOc1cccc(NC(=O)C2CC(=O)N(C)C(=Nc3ccccc3)S2)c1 (stereo not given) | 2.5 | 4 | 1.5 | -3.6%[38.3 µM] | -9 | -8 |
| O=C(O)CC(CC(=O)Nc1nncs1)c1ccccc1 (stereo not given) | 2.3 | 0 | -4.5 | 0.9% | -2 | -5 |
| COCC(C)NC(=O)c1cc(-c2ccccc2OC)on1 (stereo not given) | 0.0 | -7 | -1.2 | 1.8%[38.3 µM] | -10 | 9 |
| O=C(O)C1CC=CCC1C(=O)Nc1cccc(F)c1 (stereo not given) | 0.5 | 4 | -0.5 | -4.2%[38.3 µM] | -1 | -4 |
| Cc1cccc2c1NC1(CCCC1)CC2C (stereo not given) | 0.0 | -2 | -5.8 | 45µM* | -25 | -19 |
| CCCCOC(=O)c1nnc(-c2ccccc2)o1 | -0.6 | -8 | -2.9 | 0.6% | -7 | -9 |
| CCNC(=O)/C(C#N)=C/c1c(N2CCN(c3ccccc3)CC2)nc2ccccn2c1=O | -0.6 | -26 | -6.2 | 0.8% | 7 | -12 |
| CNS(=O)(=O)c1cn(CC(=O)N2CCN(c3ccccc3OC)CC2)cc1S(=O)(=O)NC | 0.9 | -10 | x | 1.8% | x | x |
| COc1ccccc1/C=C/c1nc(S(=O)(=O)c2ccccc2)c(N(C)C)o1 | -0.3 | 36 | -5.1 | 7.6% | -13 | 1 |
| Cc1cccc(C(=O)OC(C)CN2CCN(C)CC2)c1 (stereo not given) | -0.9 | -12 | -2.1 | -0.1% | -40 | 4 |
| COc1ccc(C(=O)Nn2c(C3CCC3)nc3ccccc3c2=O)c(OC)c1 | 0.6 | 2 | 1.1 | 4.6%[38.3 µM] | 8 | -1 |
| COCCCN1C(=O)c2[nH]nc(-c3ccccc3O)c2C1c1cccc(Cl)c1 (stereo not given) | 2.8 | 2 | 0.9 | -2.9% | 5 | -1 |
| CCCNC(=O)C(Cc1ccccc1F)NC(=O)c1ccc(C#N)cc1 (stereo not given) | 0.1 | -13 | -1.3 | 0.1% | -13 | 8 |
| Cc1ccc(S(=O)(=O)CCC(=O)N(CCN2CCOCC2)c2nc3ccccc3s2)cc1 | 0.1 | 12 | -4.3 | 0.9% | -11 | 5 |
| CC1CCCC/C1=N\NC(=S)Nc1cccnc1 (stereo not given) | 0.4 | 32 | 5.3 | -1.5% | -3 | -8 |
| COc1ccc(NC(=O)N(C)C[C@H]2Oc3c(NC(=O)NC(C)C)cccc3C(=O)N([C@H](C)CO)C[C@@H]2C)cc1 | 0.3 | -7 | -2.7 | 2.9% | 2 | 7 |
| COc1ccc(-n2nc(C(=O)N3CCC(C)CC3)c3c4ccccc4n(C)c3c2=O)cc1Cl | -0.1 | 10 | x | -0.3% | x | x |
| CCc1nc(SCC(=O)NNC(=O)C2CCCCC2)c2ccccc2n1 | -0.7 | 9 | -2.2 | -8.8%[38.3 µM] | 1 | 0 |
| Cn1cnc([N+](=O)[O-])c1Oc1cccc2ccccc12 | 0.3 | 10 | -0.2 | 1.7% | -10 | -3 |
| COc1ccc(C(C)=O)c(OC(=O)c2ccc(OC)c(OC)c2)c1 | -0.3 | 14 | -2.9 | 7.1%[38.3 µM] | -4 | 5 |
| COc1ccccc1CCNC(=O)Nc1cccc([N+](=O)[O-])c1 | 1.5 | -10 | -2.6 | -1.8% | -9 | -7 |
| COc1cc(NC(=O)CCCn2c(=O)oc3ccccc32)cc(OC)c1 | -0.7 | -9 | -0.8 | -0.4% | -9 | 2 |
| O=C(NCc1nnc(SCC(=O)N2CCOCC2)o1)c1ccccc1 | 0.7 | 2 | 1.5 | 4.8% | -8 | 12 |
| COC(=O)C(C)n1cnc2c(nnn2-c2ccc(OC)cc2)c1=O (stereo not given) | -0.6 | 7 | 0.6 | 5.6%[38.3 µM] | -6 | -1 |
| C=CCn1cc(C(=O)OCC)c(=O)c2cc(F)c(F)cc21 | -0.8 | -1 | -1.4 | -2.1% | 15 | -23 |
| Cc1ccc(NC(=O)CN2C(=O)COc3ccc(S(=O)(=O)N4CCOCC4)cc32)cc1F | 0.6 | 9 | -2.0 | -1.0% | -10 | 2 |
